# NPYLR7 agonist – activates Aedes aegypti NPYLR7 receptor. HEK293T NPYLR7/Galpha15, GCaMP6s calcium fluorescence. activation, % at 10 µM. hit rate 0.15% among 270,000. AID 1259423; in the data active means activation above about 40%;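 further: 0% = vehicle and 100% = reference agonist at the receptor; some compounds past the cut are filed as inactive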
# NPYLR7 agonist max-min – recorded beside NPYLR7 agonist, whose call it bears; activation, %; measured here: Max-Min RFU normalised activation; some inactives read as strong as hits;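 span of the calcium signal over five minutes; 0% = vehicle and 100% = native peptide agonist; compound fluorescence can raise it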
# An asterisk follows results filed as active. These rows are one share of the data, so the mix of outcomes need not match the whole.
# The line under a structure holds: NPYLR7 agonist	NPYLR7 agonist max-min
Cc1ccc2c(=O)cc(C(=O)N3CCc4c(nc(C)[nH]c4=O)C3)oc2c1
  6	6
COC(=O)c1ccc(NC(=O)CSc2nc(=O)n(CCN3CCOCC3)c3c2CCCC3)cc1
  -2	5
C=C(C)Cn1c(=O)c2c(nc3n(-c4ccc(S(N)(=O)=O)cc4)c(C)cn23)n(C)c1=O
  12	12
O=S(=O)(NCCc1csc2nc(-c3ccc(Cl)cc3)nn12)c1ccccc1
  -1	-1
CCOC(=O)N1CCN(Cc2cn[nH]c2-c2ccc(C)c(C)c2)CC1
  2	-1
c1ccc2nc(-c3nccn3CCN3CCCCC3)ccc2c1
  12	1
Cc1ccsc1C(=O)N(CC(C)O)S(C)(=O)=O (stereo unspecified)
  1	-1
Cc1cccc2[nH]c(C(=O)NC3CC3)cc12
  2	1
Cc1nc(SCC(O)CO)sc1C (stereo unspecified)
  13	7
O=C(NCCc1ncc[nH]1)C1CC(=O)N(C2CCCC2)C1 (stereo unspecified)
  -9	-12
Cc1nc2ccc(S(=O)(=O)NCCn3nc(-c4ccc(F)cc4)ccc3=O)cc2s1
  -3	-4
Cc1nc(N2CCCCCCC2)ncc1C(C)NC(=O)CCCn1cncn1 (stereo unspecified)
  6	3
CCN(Cc1cccc(C(=O)Nc2cnn(C)c2)c1)Cc1nc(C)no1
  9	8
CCOC(=O)N1CCN(C2=CC(=O)OC23CCCCC3)CC1
  0	-2
Cc1cc(C#N)ccc1OCc1ccc(C#N)cc1
  0	14
O=C1c2cccc(NC3CCCCC3)c2C(=O)c2cccc(NC3CCCCC3)c21
  3	-4
N#Cc1c(Cl)nsc1N1CCC(CCN2CCOCC2)CC1
  9	6
CC(C)CC(=O)N(CC(=O)Nc1cc(-c2ccccc2)nn1-c1ccc(Cl)c(Cl)c1)CC(C)C
  -1	2
CN(Cc1ccc(F)cc1)c1ccc(-c2nc(C3CC3)no2)cn1
  20	13
COCCOC1CN(C(=O)C(NC(=O)c2ccccc2)c2ccccc2)C1 (stereo unspecified)
  1	0
Cc1ccccc1-n1c(SCc2ccccn2)nnc1N1CCOCC1
  -11	-11
CCc1nccn1CCc1nc(CC2CCN(C)CC2)no1
  26	8
CCc1ccc(NC(=O)CC(NCCC2=CCCCC2)C(=O)O)cc1 (stereo unspecified)
  7	2
C=C(C)C(O)(C(=C)C)c1ccc(CN(CCC)Cc2ccc(OC)c(OC)c2)o1
  -3	-2
CC(NC(=O)c1cccc2c1OCC2)c1nc(-c2cccnc2)no1 (stereo unspecified)
  10	7
COc1ccc(CNC(CC(=O)N(C)C)c2ccccc2)cc1O (stereo unspecified)
  2	1
O=C(CCC1CCN(C(=O)CC2=CCCCC2)CC1)NCC1CCCO1 (stereo unspecified)
  7	4
CNc1nn(CC(=O)Nc2ccc(Cl)cc2)c(N)c1-c1nc(-c2ccc(C)cc2)no1
  1	4
NC(=O)c1c(NC(=O)C2CC3C=CC2C3)sc2c1CCCC2 (stereo unspecified)
  4	3
CNC(=O)c1nnc2n1CCN(C(=O)c1cccc(C)c1)C2
  7	4
COCC(=O)N1CCN(C(C(=O)Nc2ccc(OC)cc2)C2CCCC2)CC1 (stereo unspecified)
  -4	1
N#CCCN(Cc1ccccc1)C(=O)CSc1ccc(C(F)(F)F)cn1
  8	9
COc1ccc(-c2nc3ccc(C)cn3c2NC(=O)C(C)C)cc1OC
  -7	-6
Cc1c(C(=O)NCc2ccc3c(c2)OCCO3)sc(=O)n1Cc1ccc(S(=O)(=O)N(C)C)cc1
  14	9
Cc1nc(N2CC(C)CC(C)C2)nc2c1C(=O)CC(C)C2 (stereo unspecified)
  2	-2
COC[C@@H]1CCCN1C(=O)c1cc(CC(C)C)on1
  3	3
COc1ccc(C(=O)N2CCN(c3nc(C(C)C)nc4sc5c(c34)CCCCC5)CC2)c(OC)c1
  -1	6
Cc1ccc(C(=O)CCC(=O)NCCC(=O)N2CCCC2)s1
  6	3
C=CCOCC(O)CN1CCC(=O)N(C2CC2)Cc2cc(F)ccc21 (stereo unspecified)
  3	3
COC(=O)c1ccc2c(c1)C(=O)/C(=C/c1cn(-c3ccccc3)nc1-c1ccc3c(c1)OCCO3)O2
  -5	3
CC1CC(C(=O)OCc2ccc(Cl)s2)c2ccccc2N1 (stereo unspecified)
  -1	40
CCOP(=O)(Cc1ccc(NC(=O)C2CCN(C(=O)OC(C)(C)C)CC2)cc1)OCC
  -6	-9
Cc1ccc(-c2nnc(CN3CC[C@H](CO)[C@@H](O)C3)o2)n1C
  3	0
OCC1(Cc2ccccc2)CCCN(Cc2cn[nH]c2C2CCCCC2)C1 (stereo unspecified)
  4	3
Cc1sc2nc(CCc3ccccc3)nc(N3CCN(C(=O)c4cccs4)CC3)c2c1C
  -2	0
COc1ccc2nc(-c3ccc(OC)c(NC(=O)C(C)Oc4ccccc4F)c3)cn2n1 (stereo unspecified)
  0	-2
Cc1nn(-c2ccccc2)nc1C(=O)OCC(=O)OC(C)(C)C
  4	-1
O=C(c1ccc(-c2cccc(Cl)c2)s1)N1CCc2ccccc2C1c1ccccc1Cl (stereo unspecified)
  26	7
CCCc1cc(C(=O)NC(C)c2nnc3n2CCNCC3)cs1 (stereo unspecified)
  4	1
CC(C)=CC(=O)N1CCn2c(C(N)=O)cnc2C1
  6	5
O=C(CNC(=O)c1cccc(Cl)n1)NCCN1CCOCC1
  2	1
CC(NC(=O)C1c2ccccc2-c2ccccc21)c1nnc2n1CCNCC2 (stereo unspecified)
  2	-3
CC(=O)Cn1cnc2c(nnn2-c2ccc(C)c(C)c2)c1=O
  -2	-8
COc1cccc(C(C2Sc3nc(C)nn3C2=O)N2CCC(C(N)=O)CC2)c1 (stereo unspecified)
  0	-1
CC(O)c1nc2ccc(-c3ccc(S(C)(=O)=O)cc3)cc2[nH]1 (stereo unspecified)
  6	0
COc1cccc(-c2nnc(SCc3nc(C(=O)N4CCOCC4)cs3)n2-c2ccc(C)cc2)c1
  5	23
O=C(O)c1oc2ccccc2c1CSC1CCCCC1
  0	-1
CN(C)CCN(C(=O)C1=COCCO1)c1nc2c(Cl)cccc2s1
  -3	-5
CCCCc1nn2c(=O)c(NC(=O)c3ccccc3C)cnc2s1
  -3	3
O=C(NCC1CN(c2ccc(N3CCOCC3=O)cc2)C(=O)O1)c1ccc(Cl)s1 (stereo unspecified)
  -16	-17

COc1ccc(-n2c(SCC(=O)Nc3nccs3)nc3c(c2=O)SCC3)cc1
  NPYLR7 agonist = 7	NPYLR7 agonist max-min = 7
CC(C)Cc1ccc(CN2CCCC(CCC(=O)N(C)C3CCN(C)CC3)C2)cc1 (stereo unspecified)
  NPYLR7 agonist = 5	NPYLR7 agonist max-min = 3
Cc1cc(N2CCN(Cc3ccccc3)CC2)nc(SCc2cccc(C(=O)O)c2)n1
  NPYLR7 agonist = 8	NPYLR7 agonist max-min = 18
COc1cccc(CC2(CO)CCCN(c3cnc4ccccc4n3)C2)c1 (stereo unspecified)
  NPYLR7 agonist = -3	NPYLR7 agonist max-min = -5
CCOC(=O)c1c(NC(=O)C2=Cc3cc(Cl)ccc3OC2)c(-c2cccc(F)c2)cn1C
  NPYLR7 agonist = 17	NPYLR7 agonist max-min = 30
COc1ccc(CNC(=O)c2cccnc2N2CCN(S(=O)(=O)c3ccc(Cl)s3)CC2)cc1
  NPYLR7 agonist = 11	NPYLR7 agonist max-min = 10
Cc1cc(C)cc(OCC(=O)n2nc(C)c(Cl)c2C)c1
  NPYLR7 agonist = 3	NPYLR7 agonist max-min = -1
COc1ccc(-n2c(=O)[nH]c3c(C(N)=O)nc(-c4ccc(C)o4)nc32)c(OC)c1
  NPYLR7 agonist = -6	NPYLR7 agonist max-min = -6
CC1CN(C(=O)Nc2ccccc2N(C)c2ccccc2)CC(C)(C)O1 (stereo unspecified)
  NPYLR7 agonist = -25	NPYLR7 agonist max-min = -23
CC1(C(=O)N2CCCC(CO)(Cc3cccc(Cl)c3)C2)CCCCC1 (stereo unspecified)
  NPYLR7 agonist = 7	NPYLR7 agonist max-min = 6
COc1ccc(C2NC(C(=O)O)Cc3c2[nH]c2ccccc32)cc1OC (stereo unspecified)
  NPYLR7 agonist = 4	NPYLR7 agonist max-min = 2
O=C(O)c1cc2ccc(O)cc2oc1=O
  NPYLR7 agonist = 7	NPYLR7 agonist max-min = 6
O=C(NCCN1CCCCC1)c1csc(CSc2nnc(Cc3ccccc3)n2-c2ccccc2)n1
  NPYLR7 agonist = -12	NPYLR7 agonist max-min = -5
Cn1ccsc1=NC(=O)C12CC3CC(CC(Cl)(C3)C1)C2
  NPYLR7 agonist = 3	NPYLR7 agonist max-min = -4
Cc1ccn2c(NC(=O)Cc3ccc(F)cc3)c(-c3ccc(F)cc3)nc2c1
  NPYLR7 agonist = -9	NPYLR7 agonist max-min = 0

CCc1nnc(SC(CC)C(=O)N2CCOCC2)c2cc3oc(C)cc3n12 (stereo unspecified)
  NPYLR7 agonist = 0	NPYLR7 agonist max-min = -2
Cc1nnc(COC(=O)C2(c3ccc(Br)cc3)CCCC2)o1
  NPYLR7 agonist = 3	NPYLR7 agonist max-min = 2
O=C(Cc1ccc(Cl)cc1)NCCNc1cc(-n2cccn2)ncn1
  NPYLR7 agonist = -11	NPYLR7 agonist max-min = -14
Cc1ccc(Nc2cc(C)nc(N3CCN(C(=O)C4CCCCC4)CC3)n2)cc1
  NPYLR7 agonist = 8	NPYLR7 agonist max-min = 3
Cc1ccccc1OC(C)C(=O)ON=C(N)c1ccncc1 (stereo unspecified)
  NPYLR7 agonist = 1	NPYLR7 agonist max-min = -1
CCC(CO)N(Cc1ccsc1)C(=O)c1ccccc1N(C)C (stereo unspecified)
  NPYLR7 agonist = 0	NPYLR7 agonist max-min = -5
Cc1cc(C)n(-c2ccc(C(=O)NCC(c3ccccc3)c3ccccc3)cc2)n1
  NPYLR7 agonist = -8	NPYLR7 agonist max-min = -9
C[C@@H](CC(=O)N1CCc2c(nc(-c3cccnc3)[nH]c2=O)C1)c1ccccc1
  NPYLR7 agonist = 8	NPYLR7 agonist max-min = 4
COc1ccc(N2C(=O)CC(N3CCC(c4nc5ccccc5s4)CC3)C2=O)cc1 (stereo unspecified)
  NPYLR7 agonist = 3	NPYLR7 agonist max-min = 0
CCCn1c(C(=O)NCC2CCCO2)cc2c(=O)n(C)c(=O)n(C)c21 (stereo unspecified)
  NPYLR7 agonist = -1	NPYLR7 agonist max-min = -3
Cc1cccc(-c2noc(N3CCOCC3)c2CN(CC2CC2)C(=O)c2cccc(Br)c2)c1
  NPYLR7 agonist = 6	NPYLR7 agonist max-min = 13
COC(=O)c1ccccc1NC(=O)c1cc2nc(-c3ccc(F)cc3)cc(C(F)(F)F)n2n1
  NPYLR7 agonist = -11	NPYLR7 agonist max-min = -20
O=C1c2cccnc2C(=O)N1c1ccc(I)cc1
  NPYLR7 agonist = 14	NPYLR7 agonist max-min = 8
CC(C)N=c1scc(-c2ccccc2F)n1/N=C\c1ccc2c(c1)OCCO2
  NPYLR7 agonist = 3	NPYLR7 agonist max-min = 1
O=C(Nc1cc(C(F)(F)F)ccc1N1CCOCC1)c1ccco1
  NPYLR7 agonist = 11	NPYLR7 agonist max-min = 6
Cc1ccc(C)c(OCC(=O)NCCS(=O)(=O)N2CCCC2)c1C
  NPYLR7 agonist = -5	NPYLR7 agonist max-min = -8
CCN1CCCC1CN(CC1CCN(CCOC)CC1)C(=O)C1=NNC(=O)CC1 (stereo unspecified)
  NPYLR7 agonist = 5	NPYLR7 agonist max-min = 1
